Bioassay records as filed in PubChem BioAssay.
Rango release inh – qHTS Assay for Inhibitors of RanGTP induced Rango (Ran-regulated importin-beta cargo) - Importin beta complex dissociation; Biochemical FRET Rango-importin beta, RanGTP-induced dissociation; Potency, µM (titrated, usually from 46.1 µM), for inactives: at the top dose activity change, negative = inhibition; actives 0.071% (n = 340,000); active means falling FRET ratio curve, often poorly fitted, with flat reads before Ran was added; inconclusive means other falling curves, or compound fluorescence or quenching; inactive means flat or rising ratio curve;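 note: potency is the fitted concentration of half-maximal effect; % of control where 0% means no effect; nearly all actives have a fitted effect of over 45% in size; -100% = wells without RanGTP and RCC1; the record marks most hits as doubtful in a second field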
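Compounds sat 5 min at room temperature with 0.1 uM Rango biosensor plus 0.25 uM importin beta, then FRET pre-read. RanGTP-RCC1 (0.6 uM Ran, 2mM GTP, 0.2 uM RCC1) added for 45 min, and the CFP/YFP post-read measured blocked complex dissociation.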
miR-21 reporter – qHTS Assay for Modulators of miRNAs and/orActivators of miR-21; HeLa miR-21 FLuc reporter, luciferase, 48 h; Potency, µM (doses to about 38.3 µM), inactives show at the highest dose reporter change, positive = more light; 340,000 tested, under 10 active; AID 2288, 2010; active = well fitted rising curve with a large enough effect; inconclusive = small, poorly fitted or top-dose-only effect; inactive = no such curve, though single readings can be large or run the other way;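 note: % of control where 0% means no effect; miR-21 action dims this reporter so a rising signal means less miR-21 action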
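HeLa cells stably expressing CMV-driven firefly luciferase with a downstream miR-21 binding sequence, endogenously expressing miR-21, were treated with titrations (up to about 40uM final) for 48 hours at 37 degree Celsius. Luciferase luminescence was read after lysis.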
Rango-impB inh – qHTS Assay for Inhibitors of Rango (Ran-regulated importin-beta cargo) - Importin beta complex formation | Importin subunit beta-1 (Homo sapiens), Q14974 | Rango CFP/YFP FRET sensor + importin beta, 45 min | Potency, µM (doses to about 92.2 µM), for inactives: at the highest dose inhibition of complex formation | actives 0.031% (n = 340,000) | AID 540263, 2011; active = rising FRET ratio curve, often small or poorly fitted; inconclusive = mostly compound fluorescence or quenching in the first reads; inactive = flat curves in all reads;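 note: potency is the fitted concentration of half-maximal effect; 0% = DMSO wells and 100% = buffer wells lacking importin beta; nearly all actives have a fitted effect of over 15% in size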
Target sequence (Q14974 whole entry, looked up): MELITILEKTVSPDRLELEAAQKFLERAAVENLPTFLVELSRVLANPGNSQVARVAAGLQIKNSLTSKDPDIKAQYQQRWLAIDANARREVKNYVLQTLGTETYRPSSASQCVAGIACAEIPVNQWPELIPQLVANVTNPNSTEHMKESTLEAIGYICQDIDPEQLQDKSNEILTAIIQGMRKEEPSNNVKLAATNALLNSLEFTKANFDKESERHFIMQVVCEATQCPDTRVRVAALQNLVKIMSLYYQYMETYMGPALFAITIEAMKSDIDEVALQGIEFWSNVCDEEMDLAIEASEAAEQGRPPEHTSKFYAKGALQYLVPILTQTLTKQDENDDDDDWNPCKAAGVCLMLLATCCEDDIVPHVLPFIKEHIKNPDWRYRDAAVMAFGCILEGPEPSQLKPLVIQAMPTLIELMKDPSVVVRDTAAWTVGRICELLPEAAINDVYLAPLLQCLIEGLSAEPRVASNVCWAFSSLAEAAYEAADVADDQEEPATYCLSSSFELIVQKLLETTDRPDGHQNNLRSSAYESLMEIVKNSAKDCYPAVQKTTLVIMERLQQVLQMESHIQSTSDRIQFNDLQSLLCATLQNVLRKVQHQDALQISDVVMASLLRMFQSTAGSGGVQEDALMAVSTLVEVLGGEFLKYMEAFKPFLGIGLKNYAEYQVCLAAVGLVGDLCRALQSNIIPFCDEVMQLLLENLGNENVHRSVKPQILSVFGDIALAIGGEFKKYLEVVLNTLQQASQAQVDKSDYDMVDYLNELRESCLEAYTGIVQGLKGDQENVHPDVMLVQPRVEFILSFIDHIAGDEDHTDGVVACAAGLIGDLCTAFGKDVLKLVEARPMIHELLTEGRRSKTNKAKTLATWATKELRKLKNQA
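FRET biosensor (snurportin 1 IBB flanked by EYFP and cerulean), 50 nM, with compound 5 min, then 0.125 microM importin beta in PBS, 1 mM DTT, 0.02% Tween-20, 0.1% BSA. CFP/YFP ratio read after 45 min at room temperature; pre-read flags interference.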
GLA inh pH 4.5 – qHTS Assay for Inhibitors of Human alpha-Galactosidase at pH 4.5 | Alpha-galactosidase A (Homo sapiens), P06280 | activity change, negative = inhibition, % at 105 µM | AID 1467, 2008 | purified enzyme, 4-MU-alpha-Gal fluorescence, pH 4.5 | 230,000 tested, under 10 active; inconclusive = small, poorly fitted or top-dose-only inhibition, or a rising curve; inactive = flat fitted curve, though single readings scatter; no compound was filed as active;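 note: 0% = full activity with enzyme and -100% = basal without enzyme; dose as in the result columns while the protocol names 77 µM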
An asterisk follows results filed as active. An excerpt; the hit share may differ from the screen's.

How did CC(=O)c1c(C)oc2ccc(N(C(=O)C3CCCCC3)S(=O)(=O)c3cc([N+](=O)[O-])ccc3C)cc12 do in these assays?
Rango release inh: 2%; miR-21 reporter: -1%; Rango-impB inh: -1.7%; GLA inh pH 4.5: -3

Results for O=C(C[n+]1ccccc1)N/N=C/c1c(F)cccc1Cl ?
Rango release inh: 3%; miR-21 reporter: -3%; Rango-impB inh: 0.9%

What do the screens show for `CCOc1ccccc1-n1c(SCC(=O)NCc2ccco2)nnc1-c1ccncc1`?
Rango release inh: -4%; miR-21 reporter: -5%; Rango-impB inh: -3.1%; GLA inh pH 4.5: -10

How did CC1Oc2ccccc2N(CC(=O)c2ccccc2)C1=O (stereo not drawn) do in these assays?
Rango release inh: 2%; miR-21 reporter: -20%; Rango-impB inh: 3.1%; GLA inh pH 4.5: 1

What do the screens show for `N#CC1=C(N)Oc2n[nH]c(-c3cccs3)c2C1C1CCCCC1` (stereo not drawn)?
Rango release inh: 2%; miR-21 reporter: 8%; Rango-impB inh: -2.9%; GLA inh pH 4.5: -15

Results for O=C1[C@@H]2C(c3cccnc3)=NO[C@@H]2C(=O)N1c1ccc2ccccc2c1 ?
Rango release inh: -7%; miR-21 reporter: -11%; Rango-impB inh: inconclusive; GLA inh pH 4.5: -1

What do the screens show for `COc1ccc(S(=O)(=O)N(C)CC(=O)N2CCOCC2)cc1Cl`?
Rango release inh: 25%; miR-21 reporter: -2%; Rango-impB inh: inconclusive; GLA inh pH 4.5: -4

How did Cc1cc(C(=O)O)c(CCCN)s1 do in these assays?
Rango release inh: -1%; miR-21 reporter: 0%; Rango-impB inh: 0.1%; GLA inh pH 4.5: 14

How did Cc1cc(SCC(=O)N2CCCC2=O)nc2ccccc12 do in these assays?
Rango release inh: -7%; Rango-impB inh: 0.2%

What do the screens show for `CCc1ccccc1OCC(=O)Nc1nc(-c2cccnc2)cs1`?
Rango release inh: 36%; miR-21 reporter: 18%; Rango-impB inh: -1.1%; GLA inh pH 4.5: -11

What do the screens show for `COc1cc(C#N)ccc1OCC(=O)NCc1cccs1`?
Rango release inh: 7%; miR-21 reporter: -35%; Rango-impB inh: 0.3%; GLA inh pH 4.5: 1

Results for COc1ccc(C(=O)N2CC(c3ccc(Cl)cc3)CC2=O)cc1 (stereo not drawn) ?
Rango release inh: -5%; Rango-impB inh: 0.6%

How did COc1ccc(Nc2ncc(C(=O)N3CCN(c4ccccc4OC)CC3)c3ccccc23)cc1 do in these assays?
Rango release inh: -10%; miR-21 reporter: inconclusive; Rango-impB inh: inconclusive; GLA inh pH 4.5: -18

How did O=C(/C=C/c1ccccc1)N1CCN(c2ccc([N+](=O)[O-])c(N3CCOCC3)c2)CC1 do in these assays?
Rango release inh: 2%; miR-21 reporter: 5%; Rango-impB inh: -0.4%; GLA inh pH 4.5: -14

Results for COc1cc(C(=O)Nc2cc(C)cc(C)c2)c(-n2cnnn2)cc1OC ?
Rango release inh: 4%; miR-21 reporter: -1%; Rango-impB inh: 2.7%; GLA inh pH 4.5: -7

A portion from the list above:
How did CC(=O)c1c(C)oc2ccc(N(C(=O)C3CCCCC3)S(=O)(=O)c3cc([N+](=O)[O-])ccc3C)cc12 do in these assays?
Rango release inh: 2%; miR-21 reporter: -1%; Rango-impB inh: -1.7%; GLA inh pH 4.5: -3

Results for O=C(C[n+]1ccccc1)N/N=C/c1c(F)cccc1Cl ?
Rango release inh: 3%; miR-21 reporter: -3%; Rango-impB inh: 0.9%

What do the screens show for `CCOc1ccccc1-n1c(SCC(=O)NCc2ccco2)nnc1-c1ccncc1`?
Rango release inh: -4%; miR-21 reporter: -5%; Rango-impB inh: -3.1%; GLA inh pH 4.5: -10

Further compounds:
How did O=C1ON=C(c2ccc(Cl)cc2)/C1=C/c1ccc(O)cc1 do in these assays?
Rango release inh: 6%; miR-21 reporter: 10%; Rango-impB inh: 0.8%

Results for CCCSc1nc(=O)n2cccc(C)c2n1 ?
Rango release inh: -2%; miR-21 reporter: -37%; Rango-impB inh: 2.2%; GLA inh pH 4.5: 8

How did O=C1/C(=C/c2ccccc2)Oc2cc(OC(=O)N3CCOCC3)ccc21 do in these assays?
Rango release inh: -14%; miR-21 reporter: -9%; Rango-impB inh: 1.3%; GLA inh pH 4.5: -12

How did COc1ccc(N(C(=O)c2ccncc2)S(=O)(=O)c2ccc(OC)c(OC)c2)cc1 do in these assays?
Rango release inh: 19%; miR-21 reporter: 2%; Rango-impB inh: -2.8%

Results for COc1ccc(N2CCN(C(=O)c3ccc(C)c(Cl)c3)CC2)cc1 ?
Rango release inh: -5%; miR-21 reporter: -25%; Rango-impB inh: 0.0%; GLA inh pH 4.5: 8

What do the screens show for `Clc1cccc(CSC2=NCCCN2)c1`?
Rango release inh: 1%; miR-21 reporter: -6%; Rango-impB inh: 3.2%; GLA inh pH 4.5: -1

Results for Cc1cc(C)n(C(=O)c2cccc([N+](=O)[O-])c2)n1 ?
Rango release inh: -12%; miR-21 reporter: 3%; Rango-impB inh: 2.1%

What do the screens show for `CC(C)CC[n+]1ccn(C2=C([O-])c3ccccc3C(=O)/C2=N\S(=O)(=O)c2ccccc2)c1`?
Rango release inh: 17%; miR-21 reporter: 5%; Rango-impB inh: -0.2%; GLA inh pH 4.5: -2

How did Cc1c(/C=N/O)c2ccccn2c1C=O do in these assays?
Rango release inh: -9%; miR-21 reporter: -2%; Rango-impB inh: -5.5%; GLA inh pH 4.5: -11

What do the screens show for `CCOC(=O)N1CCN(C(=O)CSCC(=O)N=c2sc3cc(OC)ccc3n2C)CC1`?
Rango release inh: -1%; Rango-impB inh: -4.0%

Results for COc1ccc(-c2nnc(SCC(=O)NC(=O)NCc3ccccc3)o2)cc1 ?
Rango release inh: 2%; miR-21 reporter: -4%; Rango-impB inh: -2.5%; GLA inh pH 4.5: -6

What do the screens show for `COCCCn1c(C(=O)NCCN2CCOCC2)cc2c(=O)n3ccccc3nc21`?
Rango release inh: inconclusive; miR-21 reporter: 8%; Rango-impB inh: inconclusive

Results for O=C(CN1CCN(c2ccccn2)CC1)Nc1ccccc1Br ?
Rango release inh: 29%; miR-21 reporter: -8%; Rango-impB inh: 1.8%

Results for O=[N+]([O-])c1cnc(Nc2ccc(Cl)cn2)c([N+](=O)[O-])c1 ?
Rango release inh: 17%; miR-21 reporter: 6%; Rango-impB inh: inconclusive

What do the screens show for `O=C(COc1ccccc1)Nc1ccccc1F`?
Rango release inh: 0%; miR-21 reporter: -53%; Rango-impB inh: 4.3%

Gathered by group, those above containing fluorine.
Results for O=C(C[n+]1ccccc1)N/N=C/c1c(F)cccc1Cl ?
Rango release inh: 3%; miR-21 reporter: -3%; Rango-impB inh: 0.9%

What do the screens show for `O=C(COc1ccccc1)Nc1ccccc1F`?
Rango release inh: 0%; miR-21 reporter: -53%; Rango-impB inh: 4.3%

New compounds follow.
Results for O=C1NCCN1c1ccccc1 ?
Rango release inh: -2%; Rango-impB inh: 0.7%

Results for CSc1ccc(OC2CCCCC2NS(=O)(=O)c2ccc(Cl)cc2)cc1 (stereo not drawn) ?
Rango release inh: -3%; miR-21 reporter: 8%; Rango-impB inh: -3.2%; GLA inh pH 4.5: 0

Results for CC(Sc1n[nH]c(-c2cccs2)n1)C(=O)Nc1ccc(C(N)=O)cc1 (stereo not drawn) ?
Rango release inh: 11%; Rango-impB inh: -0.1%

Results for Cc1ccc(/C=N/NC(=O)c2csc3c2CCCC3)cc1 ?
Rango release inh: 3%; miR-21 reporter: -18%; Rango-impB inh: 5.8%; GLA inh pH 4.5: -4

How did COc1ccc([N+](=O)[O-])cc1NCc1cccc([N+](=O)[O-])c1 do in these assays?
Rango release inh: -6%; miR-21 reporter: -15%; Rango-impB inh: 0.2%; GLA inh pH 4.5: -6

What do the screens show for `Cc1cccc(-c2noc(-c3ccno3)n2)c1`?
Rango release inh: 1%; miR-21 reporter: -45%; Rango-impB inh: 3.1%; GLA inh pH 4.5: -21

Results for Cc1ccc(C(=O)N2CCOCC2)cc1Cl ?
Rango release inh: -8%; miR-21 reporter: -1%; Rango-impB inh: -2.0%; GLA inh pH 4.5: 0

Results for CCCCn1c(N)c(C(=S)NC(=O)CC(C)C)c(=O)n(C)c1=O ?
Rango release inh: 18%; miR-21 reporter: 0%; Rango-impB inh: -3.1%; GLA inh pH 4.5: -12

What do the screens show for `O=C(O)C(=O)/C(=C\c1cccc2ccccc12)c1ccc2ccccc2n1`?
Rango release inh: inconclusive; miR-21 reporter: -12%; Rango-impB inh: inconclusive; GLA inh pH 4.5: 11

What do the screens show for `CC(C)(C)NC(=O)C(c1ccccc1)N(C(=O)C1CSC(=O)C1)c1ccccc1` (stereo not drawn)?
Rango release inh: 20%; miR-21 reporter: -3%; Rango-impB inh: -8.7%; GLA inh pH 4.5: 0

What do the screens show for `COc1ccccc1NC(=O)Nc1nc(CC(=O)NCc2ccc(F)cc2)cs1`?
Rango release inh: 17%; Rango-impB inh: 3.3%

What do the screens show for `COC(=O)C1=CN(Cc2ccc(OC)c(OC)c2)C=C(C(=O)OC)C1c1ccccc1F`?
Rango release inh: inconclusive; miR-21 reporter: -6%; Rango-impB inh: inconclusive

How did Cc1ccc(O)c(NC(=O)c2cc([N+](=O)[O-])ccc2Cl)c1 do in these assays?
Rango release inh: -7%; miR-21 reporter: inconclusive; Rango-impB inh: 0.1%; GLA inh pH 4.5: 7

What do the screens show for `Cc1cc(SCC(=O)OCC(=O)NC(C)c2ccccc2)c(C)cc1Br` (stereo not drawn)?
Rango release inh: -3%; miR-21 reporter: -1%; Rango-impB inh: 4.7%; GLA inh pH 4.5: -4

How did O=C(NCCN1CCOCC1)c1ccc2c(c1)ncn2C1CCCC1 do in these assays?
Rango release inh: -2%; miR-21 reporter: -11%; Rango-impB inh: inconclusive; GLA inh pH 4.5: 4

What do the screens show for `Cn1c(NC(=O)C2CCCO2)cc(=O)n(C)c1=O` (stereo not drawn)?
Rango release inh: 27%; miR-21 reporter: -3%; Rango-impB inh: -3.5%; GLA inh pH 4.5: 1

How did Cn1ncc(Cl)c1C(=O)N1CCN(C(=O)c2ccco2)CC1 do in these assays?
Rango release inh: 2%; miR-21 reporter: -3%; Rango-impB inh: -2.9%; GLA inh pH 4.5: 2

What do the screens show for `O=C(c1ccc(F)cc1)c1c[nH]c(C(=O)NCCCN2CCOCC2)c1`?
Rango release inh: 7%; miR-21 reporter: -2%; Rango-impB inh: -0.7%; GLA inh pH 4.5: -3

What do the screens show for `O=C(OCC(=O)c1c[nH]c2ccccc12)c1ccc([N+](=O)[O-])s1`?
Rango release inh: 2%; miR-21 reporter: 0%; Rango-impB inh: 1.6%; GLA inh pH 4.5: 2

How did Cc1cccc(NC(=O)CNC(=O)CSc2nc(N)cc(N)n2)c1C do in these assays?
Rango release inh: 1%; Rango-impB inh: 3.9%

What do the screens show for `N#C/C(=C/Nc1ccccc1)c1ccsc1`?
Rango release inh: 0%; miR-21 reporter: -38%; Rango-impB inh: -2.0%; GLA inh pH 4.5: 4

Results for CS(=O)(=O)c1nncn1-c1ccccc1 ?
Rango release inh: 1%; miR-21 reporter: -3%; Rango-impB inh: -6.2%; GLA inh pH 4.5: 3

How did CC(NC(=O)C(=O)N1CCCCC1)C(c1cccs1)N1CCN(C)CC1 (stereo not drawn) do in these assays?
Rango release inh: -4%; miR-21 reporter: -2%; Rango-impB inh: 1.3%

How did COc1ccc(-c2csc3ncnc(N4CCN(c5ccccc5[N+](=O)[O-])CC4)c23)cc1 do in these assays?
Rango release inh: 1%; miR-21 reporter: 1%; Rango-impB inh: 4.5%

3 entries out of the list, ordered by formula weight, falling.
How did Cc1cccc(NC(=O)CNC(=O)CSc2nc(N)cc(N)n2)c1C do in these assays?
Rango release inh: 1%; Rango-impB inh: 3.9%

How did Cn1ncc(Cl)c1C(=O)N1CCN(C(=O)c2ccco2)CC1 do in these assays?
Rango release inh: 2%; miR-21 reporter: -3%; Rango-impB inh: -2.9%; GLA inh pH 4.5: 2

What do the screens show for `N#C/C(=C/Nc1ccccc1)c1ccsc1`?
Rango release inh: 0%; miR-21 reporter: -38%; Rango-impB inh: -2.0%; GLA inh pH 4.5: 4
